# Bioassay records (PubChem BioAssay)
# A1 inh: inhibitors of the anti-apoptotic protein A1, read as caspase activation; MEF A1-2A-BIM cells, Caspase-Glo 3/7 luminescence, 3 h; percent of clofoctol response, vehicle zero; caspase activation, % (no concentration beside the values); 0.066% of 330,000 active; AID 2462;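 active = over half of replicate activation scores above 10%, or exactly half above 10 with the replicate mean above 10; inconclusive = replicate mean below 10 yet half the replicates above 10; inactive = over half of replicates below 10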;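 note: wells of about 30 µL received 50 nL stock; many hits fall short of the cut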
# Beta cell apopt: blocks beta cell apoptosis; AID 435005; INS-1E cytokine-induced death, ATP luminescence, 48 h; percent of positive-control rescue, neutral wells zero; protection from apoptosis, % (concentration not given with the values); 0.8% of 300,000 active;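 active = all replicates at 75% or more, or half of them and the mean; inconclusive = half reach 75% but not the mean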;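 note: 0% = cytokine-treated negative control wells and 100% = positive control rescue; higher means more ATP so stronger rescue from cytokine killing; wells of about 40 µL received 100 nL stock; the first replicate is given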
# LANA-H2A inh: blocks KSHV LANA binding to histone H2A/H2B | AID 2629 | Q9QR71 | 0.6% of 320,000 active | inhibition, % (test concentration not listed) | cell-free LANA-H2A/H2B peptide, fluorescence polarization; in the data active = inhibition mostly above about 10%, no sharp cut-off; inactive = mostly below about 6.7%;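 note: stock transfer was 7.5 nL into about 10 µL; 0% = median of vehicle wells and 100% = median of positive control wells; one replicate is shown; the record names a cut of 25% in any replicate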
# T cruzi inh: T. cruzi replication inhibition; T. cruzi beta-gal in NIH3T3, luminescence, 90 h; inhibition, % (concentration not given with the values); 1.4% of 300,000 active;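 active = mean inhibition across valid replicates above about 55%, limit read from the data; inconclusive = mean below that limit but half or more replicates reach it; inactive = mean below it, under half of replicates reach it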;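 note: signal also drops with host cell toxicity which is not excluded here; 0% = plate median of DMSO wells and 100% = zero luminescence signal; higher percent means less beta-gal luminescence so fewer parasites; stock transfer was 50 nL into about 50 µL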
# rRNA inh HTS: inhibitors of bacterial rRNA selective over humanized ribosomes. E. coli WT GFP vs humanized-ribosome RFP mutants, fluorescence, 24 h; active compounds read low; DMSO median 0, no signal -100. GFP signal change (wild-type ribosome), % (concentration not given with the values). 1.6% of 350,000 active;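 active = significant combined selectivity score with lowered wild-type GFP, culture density cut under 30%, mutant RFP and density less affected; inactive = any of these conditions unmet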; note: one replicate is shown; some compounds called inactive have numbers as strong as hits
# ALR inh: inhibitors of human sulfhydryl oxidase ALR; 3.8% of 290,000 active; inhibition, % (no concentration beside the values); P55789; purified ALR, DTT oxidation, H2O2 HRP-luminol luminescence; AID 485317;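 active = mean and each replicate at 75% or more; inconclusive = only one of the two met; inactive = neither met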;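 note: stock transfer was 7.5 nL into about 7.5 µL; 0% = neutral wells and 100% = wells with inactivated enzyme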
# Target sequence (P55789 whole entry, looked up): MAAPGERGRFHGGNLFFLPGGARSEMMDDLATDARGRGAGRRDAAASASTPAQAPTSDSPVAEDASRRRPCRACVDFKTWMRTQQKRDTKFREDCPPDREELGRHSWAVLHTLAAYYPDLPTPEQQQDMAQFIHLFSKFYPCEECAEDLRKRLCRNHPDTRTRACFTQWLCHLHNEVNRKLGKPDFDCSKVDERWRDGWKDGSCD
# Beta2AR agonist: human beta-2 adrenergic receptor agonism by FAP | P07550 | Am2.2-beta2AR cells, FAP receptor internalization, flow cytometry; reference of the scale not given here | response, % (no concentration beside the values) | 0.43% of 340,000 active;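 active = response above a set limit, near 3 SD of response in nonfluorescent compounds, cut at about 42% in these data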;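 note: stock transfer was 100 nL into about 11 µL; a reference agonist was the positive control; negative values mostly stem from fluorescent compounds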
# Target sequence (P07550 whole entry, looked up): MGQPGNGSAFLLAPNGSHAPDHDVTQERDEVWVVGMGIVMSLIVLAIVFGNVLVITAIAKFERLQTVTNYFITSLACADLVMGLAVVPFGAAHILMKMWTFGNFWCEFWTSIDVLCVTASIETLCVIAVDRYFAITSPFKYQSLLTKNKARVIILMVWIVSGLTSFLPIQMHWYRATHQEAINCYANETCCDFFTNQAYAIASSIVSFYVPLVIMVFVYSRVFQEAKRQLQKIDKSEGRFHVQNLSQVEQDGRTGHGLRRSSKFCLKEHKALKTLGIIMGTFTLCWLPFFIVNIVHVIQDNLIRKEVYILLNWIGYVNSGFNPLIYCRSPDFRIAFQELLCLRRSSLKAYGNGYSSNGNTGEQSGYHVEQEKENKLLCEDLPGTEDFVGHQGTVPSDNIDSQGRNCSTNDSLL
# Calb FLC: affects C. albicans growth with fluconazole; C. albicans CaCi-2 (fluconazole-resistant clinical isolate) + fluconazole, Alamar Blue growth, 48 h; growth inhibition, % (concentration not given with the values); 0.57% of 300,000 active; AID 1979;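 active = most replicates above 75%; inconclusive = exactly half above 75%; inactive = most below 75%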;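 note: all wells also contain fluconazole at 8 µg/ml as a sub-toxic cotreatment; 0% = median of DMSO wells and 100% = median of geldanamycin control wells; wells of about 8 µL received 7.5 nL stock; the first replicate is given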
# rRNA inh HTS OD600: recorded beside rRNA inh HTS, whose call it bears; OD600 change, %; measured here: OD600 growth;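 optical density of the mix in the first replicate; 0 = DMSO median and -100 = no signal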
# rRNA inh HTS RFP: also measured in rRNA inh HTS; calls as there; RFP signal change, %; measured here: RFP humanized mutant strains;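 first replicate; 0 = DMSO median and -100 = no signal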
# * = called active by the depositor; ? = inconclusive; / = not tested or not shown.
compound	A1 inh	Beta cell apopt	LANA-H2A inh	T cruzi inh	rRNA inh HTS	rRNA inh HTS OD600	rRNA inh HTS RFP	ALR inh	Beta2AR agonist	Calb FLC
Cc1ccc(C(=O)COc2ccccc2C(=O)Nc2ccccc2)cc1	0.9	5	-2.9	22	/	/	/	-2	1	-12
Cc1ccc(C)c(-n2ccnc2SCC(=O)O)c1	0.4	-1	5.2	5	/	/	/	-5	-7	2
CC(C)(C)c1ccc(OCC(O)CN2CCOCC2)cc1 (centres undefined)	0.8	4	-2.2	17	2	0	0.4	-14	-5	-12
CCOc1ccc(NS(=O)(=O)c2ccc(C(=O)N3CCCC3)cc2)cc1	0.5	-3	2.7	-2	8	2	1.9	/	-16	-3
COc1ccccc1C(=O)NC(=O)CSc1nncn1C(C)C	1.3	-1	-1.3	-6	11	3	-2.9	-1	-4	6
CCc1c(C(C)=O)oc2ccc3c(C)cc(=O)oc3c12	1.6	5	-7.5	-9	3	1	11	-6	-5	-2
Cc1cc(OCc2nc(-c3cccnc3)no2)c(C)cc1Br	-0.1	-3	-1.6	3	/	/	/	2	6	12
CCCCn1c(N)c(N(CCOC)C(=O)C2CCN(C(=O)c3ccc(F)cc3)CC2)c(=O)[nH]c1=O	0.9	-2	4.9	-11	1	4	-1.7	2	-9	8
CCCC[C@@H](CNC)NC[C@H](NCCCCC1CCCCC1)C(C)C	0.3	/	1.5	39	-3	-15	6.1	-1	28	-5
Cc1ccc(Cl)cc1N1C(=O)CC(C)(C)CC1=O	0.5	/	-4.8	-10	9	9	0.3	/	2	7
Oc1nc(Nc2ccc(F)cc2)sc1/C=C1\C=Nc2ccccc21	-0.7	8	8.4	13	-36	-41	0.8	4	19	0
CC(NC(=O)c1cccc(Cl)c1)C1CC2CCC1C2 (centres undefined)	-0.3	3	2.4	12	4	14	-1.7	-3	2	7
COc1ccc(OC)c(NC2c3ccccc3C(=O)N2Cc2ccc3c(c2)OCO3)c1 (centres undefined)	0.8	3	2.3	19	-1	-9	9.1	-10	9	6
CCCNc1nc(C)nc2c1cnn2CCc1ccccc1	-0.1	-4	0.1	8	-5	-7	-1.2	-3	-4	-2
O=C(Nc1ncccc1O)C1CCN(S(=O)(=O)c2ccc3ccccc3c2)CC1	0.7	-2	9.1	-3	-8	-12	-3.5	-38	4	-3
O=C(COc1ccccc1Cl)NC(=S)Nc1ccccc1N1CCCC1	1.2	-1	-0.7	8	-10	5	16	23	1	0
CC(=O)N(Cc1cc(=O)[nH]c2ccccc12)c1ccccc1	0.3	-1	2.4	-15	/	/	/	-3	-4	-19
COc1ccccc1N1CCN(c2nc(C)cc(C)c2C#N)CC1	0.9	3	0.5	9	-36	-39	-8.3	54	-3	-3
CC1CCCN(Cc2c(O)ccc3c(=O)c(-c4ccc(Cl)cc4)coc23)C1 (centres undefined)	/	/	/	9	1	6	-1.8	/	-1	4
CC1CN(c2ncc(/C=N/NC(=O)c3ccccc3O)s2)CC(C)O1 (centres undefined)	0.5	-2	1.1	-3	-31*	-9.3*	2.1*	11	5	-5
COc1ccc(CCNC(=O)Cn2nnc(C(=O)Nc3cc(C)ccc3C)c2N)cc1OC	-0.4	-12	-5.6	-6	4	4	-0.8	-2	-5	1
CC1(C)CC(=O)C(N=Nc2ccc3ncsc3c2)=C(O)C1	-0.2	-5	-6.2	-26	/	/	/	-17	1	1
CCOc1ccc(NC(=O)CN(c2ccc(OC)cc2)S(C)(=O)=O)cc1	-6.2	-4	-2.4	-7	/	/	/	-8	-4	-4
CCOC(=O)c1cc(C)n(-c2ccc(Cl)cc2)c1C	-0.6	/	-4.5	26	-23*	-16*	-5.4*	/	-4	-15
CCc1noc(C)c1C(=O)N1CCN(S(=O)(=O)c2ccc(C(C)C)cc2)CC1	?	-7	-4.4	5	10	10	0.2	-14	3	-7
COc1ccccc1CC(=O)Nc1ccc(OC)c(OC)c1	0.4	-18	0.6	17	-1	-5	-0.1	-6	7	/
O=C(Nc1ccccc1C(=O)O)c1cccc(C(=O)Nc2ccccc2C(=O)O)c1	-12	-2	-3.1	-12	9	12	1.2	5	-5	11
CCCc1nc2ccccc2c(=O)n1/N=C/c1ccc(O)cc1	0.3	/	-2.8	-26	/	/	/	-6	-2	25
CCC(C)n1c(=N)c(C#N)cc2c(=O)n3cc(C)ccc3nc21 (centres undefined)	1.8	1	0.6	9	14	-3	-5.3	-2	-5	21
COc1ccc(Cl)cc1NC(=O)c1cccc(N2C(=O)C3CC=CCC3C2=O)c1 (centres undefined)	0.2	-5	2.2	-4	8	3	-0.8	-1	3	1
CC(C)CC(=O)Nc1cc2c3c(c1)CCN3C(=O)CC2	2.3	/	2.6	3	11	18	1.0	-5	2	-3
Cc1nnc(N2C(=O)c3cccc4cccc(c34)C2=O)s1	0.5	/	-1.5	-7	/	/	/	0	-1	-6
CN(Cc1ccon1)C(=O)CC1C(=O)NCCN1Cc1cccc(F)c1F (centres undefined)	0.5	-6	-1.7	-6	4	-5	3.6	-3	8	2
CCOC(=O)/C(=C\c1ccc(OC)c(OC)c1)C(=O)c1cccnc1	4.2	-2	-5.4	-20	-4	-5	-2.6	62	15	1
CSc1nc2c(cc1C#N)C(=O)CC(C)(C)C2	0.8	-1	5.8	-10	11	-19	-1.4	-3	0	-2
O=C(NC(=S)Nc1ccc(N2CCOCC2)cc1)c1cccc(Cl)c1Cl	0.7	2	2.1	-7	4	3	-2.7	9	1	-7
CCO[C@@H]1OC(C(=O)N2CCN(Cc3ccccc3)CC2)=C[C@H](C)[C@H]1CCCO	2.5	-4	0.3	-20	8	8	0.2	-12	3	-16
CCC(NC(=O)c1ccccc1NC(=O)c1ccco1)C(=O)NC1CCCCC1 (centres undefined)	0.0	0	1.8	5	/	/	/	-31	4	-1
O=C(NNC(=O)c1ccc(-c2ccccc2)cc1)Nc1ccccc1F	0.1	0	-0.1	-4	-11	-6	-2.8	-15	0	-5
NC(=O)CN1C(=O)C2C3C=CC(C3)C2C1=O (centres undefined)	0.1	/	-0.2	-12	/	/	/	-8	2	0
O=C(CN(c1ccccc1)S(=O)(=O)c1ccc(Cl)cc1)Nc1cccnc1	-0.8	-7	2.4	6	-2	-15	3.7	/	2	-1
Cc1c(=O)n(OCc2ccccn2)c2ccccc2[n+]1[O-]	0.2	-4	0.5	-1	/	/	/	-20	-23	10
C/C(=N\N=C(N)N)c1ccc(Cl)c(Cl)c1	1.3	-2	2.7	53	-33	-30	-2.6	1	19	16
Cc1ccccc1C(=O)Nc1ccc(C(=O)O)cc1NC(=O)c1ccccc1C	0.8	-4	5.0	-6	0	5	1.7	-8	7	-3
CCn1c(-c2ccc3[nH]c(C)c(C)c3c2)n[nH]c1=S	-0.3	-5	-1.7	-3	-12	-9	4.8	98*	2	5
CC(=O)C1C(=O)CC(C)(O)C(C(C)=O)C1c1ccc(N(C)C)cc1 (centres undefined)	-0.4	-1	0.2	-12	/	/	/	98*	1	-12
O=C(O)CCc1ccc(-c2ccc(F)cc2)n1NC(=O)c1ccco1	-1.3	-3	0.1	-10	/	/	/	12	0	-2
Cc1cc(C(=O)CN2C(=O)NC(c3ccccc3)(c3ccccc3)C2=O)c(C)n1Cc1ccccc1	0.3	-6	-3.6	44	4	7	0.3	-3	-2	7
CC(=O)CSc1nnc(C(F)(F)F)n1C	-0.2	-10	1.6	-17	11	0	-3.5	0	-1	4
COc1ccc(-c2noc(COc3ccc(C)c(C)c3)n2)cc1OC	1.0	-11	-2.8	12	/	/	/	4	-1	-14
COC(=O)c1ccc(CSc2n[nH]c(C)n2)o1	0.3	-2	-0.8	-2	8	9	2.0	4	1	-21
Cc1nn(Cc2c(Cl)cccc2Cl)c(C)c1N	-0.4	-1	0.8	?	/	/	/	19	8	-3
C=C1CCN([C@H](C(=O)OCc2cccc(C)c2)C(C)C)S(=O)(=O)c2ccccc21	-1.4	7	-2.5	3	1	2	-1.8	-5	12	3
COCc1cccc(C2=CC(=O)C[C@H](c3ccc(OC)cc3)C2)c1	-0.8	-4	7.8	/	-22	-38	-3.9	-5	-5	/
CSc1ccc(S(=O)(=O)NCC(=O)OCC(=O)N2CCC(C)CC2)cc1[N+](=O)[O-]	1.6	2	2.5	/	-9	3	-3.9	-39	3	/
Cc1cc(C)n(CC(O)COc2ccc(Cl)cc2)n1 (centres undefined)	0.2	-3	2.9	-2	4	2	1.8	/	-3	-2
CCc1ccc(OCC(=O)N(C)CCC#N)c(Br)c1	1.0	-2	-6.9	2	/	/	/	-11	8	-6
CCCCNC(=O)CSc1ccc(S(=O)(=O)N2CCOCC2)cn1	-0.8	-1	-1.3	/	1	3	0.1	18	-2	/
COc1cccc(C2CC(c3cccs3)Nc3ncnn32)c1 (centres undefined)	-0.2	-5	-0.3	-9	/	/	/	-17	-2	-8
COc1ccccc1NC(=O)Cc1csc(NC(=S)Nc2ccc(C)cc2)n1	-0.1	7	5.4	20	/	/	/	1	-10	-5

# Continuation:
compound	A1 inh	Beta cell apopt	LANA-H2A inh	T cruzi inh	rRNA inh HTS	rRNA inh HTS OD600	rRNA inh HTS RFP	ALR inh	Beta2AR agonist	Calb FLC
CN1CCN(CCCNC(=O)c2cc3c(-c4ccc(Cl)cc4)nn(C)c3s2)CC1	/	/	/	32	4	3	1.6	/	11	9
O=C(COc1ccc(Cl)cc1)NCc1nnc(SCC(=O)N2CCCCC2)o1	-0.7	1	0.0	5	/	/	/	-10	-12	-3
CCOC(CNC(=O)C(=O)Nc1cc2c3c(c1)CCC(=O)N3CCC2)OCC	-0.9	2	2.0	-4	0	8	-1.7	0	-1	1
O=C(NC1CCCCC1)C(c1ccco1)N(Cc1cccs1)C(=O)Cn1nnc2ccccc21 (centres undefined)	0.6	15	0.2	/	/	/	/	-7	0	/
COc1ccccc1C(=O)COC(=O)CN1C(=O)C2CC=CCC2C1=O (centres undefined)	-0.3	0	2.7	-1	2	3	-0.6	4	-5	/
CN(C(=O)C1CCCCN1S(=O)(=O)c1ccccc1)c1ccccc1 (centres undefined)	-0.1	-9	-1.8	/	-4	-11	1.6	-7	-4	/
COc1ccc(N=N/C(C(C)=O)=C(/C)O)cc1	-2.3	-5	0.4	-6	-12	2	-0.9	-8	8	-4
CCc1nc2ccccc2c(NC(=O)CN2CC(C)CC(C)C2)c1C (centres undefined)	-1.0	/	-7.4	-2	-7	-10	-2.4	-8	-4	-6
COc1ccccc1N1CC(C(=O)Nc2ccccc2N2CCCC2)CC1=O (centres undefined)	-0.9	2	4.6	-6	1	15	0.4	62	2	4

# This is a subset, so the mix of outcomes need not match the whole.
